Source: PubChem BioAssay (National Center for Advancing Translational Sciences (NCATS))
VDR inh: blocks the human vitamin D receptor | P11473 | VDR-SRC2-3 peptide fluorescence polarization, 2 h | Potency, µM, without a hit: max response, negative = inhibition, usual class: inhibitors | hit rate 0.93% among 400,000 | AID 504847; active means well fitted inhibition curve with a large enough effect; inconclusive means small, poorly fitted or top-dose-only effect, or another doubt; inactive means no such curve, though single readings can be large or run the other way; further: series mostly up to about 120 µM
Target sequence (P11473 whole entry, looked up): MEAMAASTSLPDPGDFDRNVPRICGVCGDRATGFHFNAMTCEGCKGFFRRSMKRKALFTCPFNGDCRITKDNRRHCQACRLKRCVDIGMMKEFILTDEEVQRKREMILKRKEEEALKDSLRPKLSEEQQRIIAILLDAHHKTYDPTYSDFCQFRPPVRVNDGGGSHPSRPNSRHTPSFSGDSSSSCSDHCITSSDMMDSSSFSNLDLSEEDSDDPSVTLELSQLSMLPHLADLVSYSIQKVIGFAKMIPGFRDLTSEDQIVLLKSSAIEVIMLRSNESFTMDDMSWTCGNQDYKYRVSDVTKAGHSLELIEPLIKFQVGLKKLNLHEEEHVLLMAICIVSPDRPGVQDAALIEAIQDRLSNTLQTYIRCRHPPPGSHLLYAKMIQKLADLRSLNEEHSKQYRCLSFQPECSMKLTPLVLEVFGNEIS
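Signal is fluorescence polarization, reporting how far test compounds block the interaction of VDR with the SRC2-3 coregulator peptide after a 2 h room-temperature incubation.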
* marks the source's active call; other numbers are inactive results; ? = inconclusive; [ ] = dose if it differs, or a comment. On the % scale 0 is the no-effect control and ±100 the full control effect; potency means the concentration at half of the fitted maximal effect.

SMILES	VDR inh
CCCCC[C@H](O)/C=C/C1C(=O)C=C[C@H]1C/C=C\CCCC(=O)OC (stereo not given in full)	25.1µM*
NS(=O)(=O)c1ccc(NC(=O)c2ccc(S(=O)(=O)N3CCCCCC3)cc2)cc1	-7.2%
CN1CCCC1CCNc1ccc2c(=O)c3ccccc3oc2c1 (stereo not given)	-5.6%
CCN(CC(=O)NCc1ccc(F)cc1)C(=O)c1ccc(C(=O)c2ccccc2)cc1	23.1%
Cc1cccc(-n2c(SCC(=O)Nc3nnc(C)s3)nnc2-c2ccoc2C)c1	-8.3%
CCOC(=O)c1c(NC(=O)CSc2nnc(-c3ccccc3)n2CC)sc(C(C)=O)c1C	-1.2%
Cc1c(Cl)cccc1NC(=S)NC1CCCC1	-13.6%
O=C1CCCN1c1ccc(S(=O)(=O)Nc2cccnc2)cc1	0.6%
O=C1CC2(CCCC2)CC(=O)N1CCCCNC[C@H]1COc2ccccc2O1	5.7%
CN1CCN(C(=O)CSc2nc(-c3cccs3)cc(-c3cccs3)c2C#N)CC1	-6.8%
O=C(COC(=O)CNC(=O)c1cc(Cl)cc([N+](=O)[O-])c1)NC(=O)NCc1ccco1	-7.2%
Cc1c(-c2ccccc2)n(-c2ccc(Cl)cc2)c2nc3c(c(=O)n(C)c(=O)n3C)n12	10.9%
COc1cccc(CNC(=O)C(=O)NCC2CCCN2S(=O)(=O)c2cc(C)ccc2C)c1 (stereo not given)	-9.7%
CCCSc1nc(-n2ncc(C#N)c2N)c2c3c(sc2n1)CCC(C)C3 (stereo not given)	-4.0%
Clc1ccc(Cn2cc(Br)cn2)cc1Cl	2.9%
Oc1ccc(Br)cc1C=Nc1cccn2cc(-c3ccccc3)nc12	-13.5%
Cc1cc(C)cc(C(=O)NCC(c2ccc(N(C)C)cc2)N2CCCC2)c1 (stereo not given)	0.5%
COC(=O)[C@H](Cc1ccccc1)NC(=O)[C@@H](N)CC(=O)OCc1ccccc1	-16.7%
CCCC(=O)Nc1ccccc1NC(=O)CN(C)S(=O)(=O)c1ccccc1	-3.1%
COc1ccccc1NC(=O)N1CCC(NC(=O)C2CCCCC2)CC1	3.9%
COc1ccc(Cl)cc1N=Cc1c(O)cc(C)oc1=O	7.9%
Cc1ccnn1CCC(=O)N1CCCC(N2CCN(c3cccc(Cl)c3)CC2)C1 (stereo not given)	-3.7%
Fc1ccc(C2=CC(c3cccs3)n3nnnc3N2)cc1 (stereo not given)	0.9%
COc1ccc(Nc2ncnc3c2c(C)c(C)n3CCO)cc1	14.4%
Cc1nn2c(N3CCOCC3)c3c(nc2c1-c1ccccc1)CCCC3	5.6%
Next section.
SMILES	VDR inh
C=CCNc1ccc(C(=O)O)cc1	-22.2%
O=C(COc1ccccc1)N/N=C/c1ccc2c(c1)OCO2	3.1%
c1ccc(NCc2cccnc2)cc1	-2.4%
Cc1cccc(N2CC(O)(c3cccs3)[N+]3=C2CCCC3)c1 (stereo not given)	-0.6%
CC1(c2ccccc2)NC(=O)N(CC(=O)Nc2cc(Cl)ccc2N2CCOCC2)C1=O (stereo not given)	1.7%
Cc1nnc(SCC2=C(C(=O)O)N3C(=O)C(NC(=O)COc4ccc(F)cc4)C3SC2)s1 (stereo not given)	79.4µM*
Cc1cccc2sc(N3CCN(C(=O)c4ccco4)CC3)nc12	6.0%
COc1cccc(NC(=O)CNC(=O)[C@@H]2Cc3ccccc3CN2C(=O)OC(C)(C)C)c1	-12.3%
CN1CCN(S(=O)(=O)c2ccc3c(c2)C(C)(C)C(=O)N3C)CC1	-20.0%
CN=C1S/C(=C\c2ccc(Cl)cc2)C(=O)N1C	-3.3%
CCCCn1c(=O)[nH]c(=O)c2c1nc(CN(C)Cc1cccc(OC)c1OC)n2CCC	-2.5%
COc1ccc(OC)c(-n2c(CN3CCC(C(N)=O)CC3)nc3ccccc3c2=O)c1	-10.5%
CCOc1ccc(S(=O)(=O)N2CCN(C(=S)NCC3CCCO3)CC2)cc1 (stereo not given)	28.2%
FC(F)C(F)(F)C(F)(F)C(F)(F)c1cc(-c2ccccc2)n[nH]1	-10.2%
CC(=O)NCCNC(=O)c1ccc2c(=O)n(CCc3ccccc3)c(=O)[nH]c2c1	?
CCOc1ccc(N2C(=O)C(CC(=O)Nc3ccccc3)N(Cc3ccccn3)C2=S)cc1 (stereo not given)	4.1%
O=C(N=C1SC2CS(=O)(=O)CC2N1c1ccccc1F)C1CCCCC1 (stereo not given)	6.5%
CC(=O)Nc1ccc(-c2cc(N)n(-c3ccccc3)n2)cc1	1.4%
CCOc1ccc(Cc2nnc(SCC(=O)Nc3c(C)cccc3C)[nH]c2=O)cc1	-14.7%
Cc1nn(C)c(C(=O)NN)c1Cl	7.0%
COc1cc(NC(=O)c2cccc(C)c2)c(OC)cc1NC(=O)CN1CCOCC1	3.0%
CCOc1ccc(/C=N/n2nnnc2N)cc1OCC	?
Cc1ccc(Cl)cc1N1CCN(S(=O)(=O)c2ccc3c(c2)CCN3C(=O)C2CCC2)CC1	-8.5%
COc1ccccc1CN1CN(S(=O)(=O)c2ccccc2)c2nc3ccccc3nc21	-19.0%
c1cncc(-c2nnc(SCc3cccc4ccccc34)o2)c1	-4.8%
(further entries)
SMILES	VDR inh
Cc1ccc(S(=O)(=O)N2CCC(C(N)=O)CC2)cc1C(=O)NC1CCCCC1	1.3%
O=C(CN1CCC(C(=O)c2ccc3c(c2)OCCO3)CC1)NCc1ccc(F)cc1	13.6%
CCOc1ccc(C2CC(=O)c3c([nH]c(C(=O)OCc4ccccc4)c3C)C2)cc1 (stereo not given)	-17.8%
CCOc1cc(-c2nc(-c3ccc(-c4ccc(OC)cc4)nc3OC)no2)cc(OCC)c1OCC	-11.8%
COc1ccc(NC(=O)N(C)C[C@H]2Oc3ccc(NS(=O)(=O)c4ccc(F)cc4)cc3C(=O)N([C@H](C)CO)C[C@@H]2C)cc1	-7.1%
Cc1ccsc1CN(C)CC(=O)NCC(=O)Nc1ccc(F)c(F)c1F	44.2%[activator]
CCn1c(=NC(=O)c2cccc(N3C(=O)CCC3=O)c2)sc2c(C)ccc(OC)c21	20.1%
C[Se]CCC(N)C(=O)O (stereo not given)	0.4%
Cc1ccc2nc(-c3ccco3)c(Nc3ccc4c(c3)OCCO4)n2c1	-9.7%
CCOc1cc(C(=O)NCCc2csc3nc(-c4ccccc4F)nn23)cc(OCC)c1OCC	6.8%
Cc1ccccc1NC(=S)N(Cc1cccnc1)Cc1ccccc1Cl	5.0%
Fc1cccc(-n2ncc3c2ncn2nc(COc4ccc(Cl)cc4)nc32)c1	15.9%
O=S(=O)(c1ccccc1)N1CCN(C(c2ccccc2)c2ccc(OC(F)(F)F)cc2)CC1 (stereo not given)	-7.9%
COc1ccc(CCNC2CC(=O)N(N(C)C)C2=O)cc1OC (stereo not given)	3.1%
CCC(CC)C(=O)Nc1ccc2nc(SCC(=O)N3c4ccccc4CC3C)sc2c1 (stereo not given)	4.3%
Cc1cc(C)c2[nH]c(=O)c(CN(CC3CCCO3)C(=O)C3CCCO3)cc2c1 (stereo not given)	6.7%
O=C(NCCn1cc(SCc2ccc(F)cc2)c2ccccc21)c1ccccc1F	-0.6%
CCc1nc2ccccc2c(C(=O)OCC(=O)C(C)(C)C)c1C	8.9%
Cc1c(C)n(Cc2ccccc2)c2ncnc(NCCN(C)C)c12	-6.5%
COc1ccc(OC)c(C2C(C(=O)c3ccc(C)o3)=C(O)C(=O)N2c2cc(C)on2)c1 (stereo not given)	?
Cn1c(N)c(C(=O)CSc2nc(N)cc(=O)[nH]2)c(=O)n(C)c1=O	14.2%
NC(=O)CSc1nccn1Cc1ccc(Cl)cc1	-2.7%
O=C(NCC(c1ccco1)N1CCCCC1)C(c1ccccc1)c1ccccc1 (stereo not given)	10.2%
COc1ccccc1C(=O)NCCC(=O)Nc1ccc(S(=O)(=O)Nc2ncccn2)cc1	0.4%
COc1ccc(Nc2cc(C(=O)NCCCN(C)Cc3ccccc3)c3ccccc3n2)cc1OC	0.0%

15 structures from above, arranged by molar mass, smallest number first:
SMILES	VDR inh
C[Se]CCC(N)C(=O)O (stereo not given)	0.4%
NC(=O)CSc1nccn1Cc1ccc(Cl)cc1	-2.7%
CCc1nc2ccccc2c(C(=O)OCC(=O)C(C)(C)C)c1C	8.9%
COc1ccc(CCNC2CC(=O)N(N(C)C)C2=O)cc1OC (stereo not given)	3.1%
Cc1c(C)n(Cc2ccccc2)c2ncnc(NCCN(C)C)c12	-6.5%
Cc1ccc2nc(-c3ccco3)c(Nc3ccc4c(c3)OCCO4)n2c1	-9.7%
Cc1ccccc1NC(=S)N(Cc1cccnc1)Cc1ccccc1Cl	5.0%
Cc1cc(C)c2[nH]c(=O)c(CN(CC3CCCO3)C(=O)C3CCCO3)cc2c1 (stereo not given)	6.7%
O=C(NCC(c1ccco1)N1CCCCC1)C(c1ccccc1)c1ccccc1 (stereo not given)	10.2%
Fc1cccc(-n2ncc3c2ncn2nc(COc4ccc(Cl)cc4)nc32)c1	15.9%
Cc1ccc(S(=O)(=O)N2CCC(C(N)=O)CC2)cc1C(=O)NC1CCCCC1	1.3%
O=C(CN1CCC(C(=O)c2ccc3c(c2)OCCO3)CC1)NCc1ccc(F)cc1	13.6%
CCn1c(=NC(=O)c2cccc(N3C(=O)CCC3=O)c2)sc2c(C)ccc(OC)c21	20.1%
COc1ccccc1C(=O)NCCC(=O)Nc1ccc(S(=O)(=O)Nc2ncccn2)cc1	0.4%
O=S(=O)(c1ccccc1)N1CCN(C(c2ccccc2)c2ccc(OC(F)(F)F)cc2)CC1 (stereo not given)	-7.9%

Continued.
SMILES	VDR inh
Nc1ccc(C(=O)OCCc2ccccc2)cc1	-25.9%
COc1ccc(/C=C(/C(=O)c2ccc(Cl)cc2Cl)n2cncn2)cc1	56.2µM*
O=C(Nc1ccccc1OC(F)F)c1cccc(S(=O)(=O)N2CCCC2)c1	?
CC(=O)Nc1c(I)c(C(=O)O)c(I)c(N(C)C(C)=O)c1I	2.2%
O=C(O)C1C2OC(C(Br)C2Br)C1C(=O)O (stereo not given)	7.2%
COc1ccc(CCNC(=O)CN2C(=O)NC(Cc3c[nH]c4ccccc34)C2=O)cc1 (stereo not given)	-10.8%
Cc1nn(-c2ccccc2)c(C)c1/C=N/NC(=O)c1cc(C23CC4CC(CC(C4)C2)C3)[nH]n1	-20.1%
CN(C(=O)COC(=O)CSc1ccc([N+](=O)[O-])cc1)c1ccccc1	89.1µM*
CCc1nc(CNC(=O)C2CCC(=O)N(CCc3cccc(F)c3)C2)no1 (stereo not given)	-7.4%
COc1ccc(S(=O)(=O)N(CC(=O)N2CCN(C)CC2)C2CCCCC2)cc1OC	-5.1%
COC(=O)Cc1ccc(NC(=O)c2ccc3c(c2)C(=O)N(CC2CCCO2)C3=O)cc1 (stereo not given)	-21.4%
CC(C)C(Cl)=NOC(=O)Nc1ccc(F)cc1	?
COc1ccc(OCC(=O)N2CCN(c3nnc(-c4ccccc4)c4ccccc34)CC2)cc1	3.7%
S=C(NCc1ccccc1)N1CCN(Cc2ccc3c(c2)OCO3)CC1	0.5%
CC(C)(C)c1ccc(C(=O)NCC(=O)OCN2C(=O)c3ccccc3C2=O)cc1	-6.8%
O=C(Nc1ccc(F)cc1)N(CCCN1CCOCC1)Cc1cc2cc3c(cc2[nH]c1=O)OCO3	5.3%
CC(=O)c1cc2c(cc1NC(=O)c1ccc(-n3nc(C)cc3C)cc1)OCO2	-12.3%
CCOC(=O)COc1coc(CN2CCN(c3cccc(Cl)c3)CC2)cc1=O	-24.1%
COC(=O)c1cc(NS(=O)(=O)c2ccc(NCc3cccnc3)c([N+](=O)[O-])c2)cc(C(=O)OC)c1	-17.5%
CCCCNCc1cc2ccccc2o1	8.3%
COc1ccccc1CNC(=O)c1ccc(OCC2CCCO2)cc1 (stereo not given)	-5.1%
O=S(=O)(c1ccc(F)c(F)c1)N1CCN(c2ncccn2)CC1	-13.0%
Cc1ccc(SCCNC(=O)C(C)C)cc1	14.6%
Cc1cc(C)c(C)c(S(=O)(=O)N2CCC(C(=O)NCCCN3CCOCC3)CC2)c1C	1.1%
COc1ccc2nc(N3C(=O)/C(=C/c4ccc(Cl)cc4)NC3=S)sc2c1	-3.8%
Continuation.
SMILES	VDR inh
CCCCN(C(=O)C1CC(=O)N(CCc2ccc(OC)c(OC)c2)C1)c1c(N)n(CCCC)c(=O)[nH]c1=O (stereo not given)	-10.1%
Cc1ccc2nccc(C(=O)N3CCCC(Nc4ccc(C)c(C)c4)C3)c2c1 (stereo not given)	16.7%
NNc1cc([N+](=O)[O-])cc2c1C(=O)N(Cc1ccccc1)S2=O (stereo not given)	?
COc1ccc(/C=N/NC(=O)c2ccc(Cl)cc2)cc1COC(C)=O	4.0%
CCOC(=O)C(C)On1c(-n2nc(C)cc2C)nc2ccccc2c1=O (stereo not given)	-7.5%
O=C(CN1C(=O)/C(=C2\SC(=S)N(C3CCS(=O)(=O)C3)C2=O)c2ccccc21)Nc1ccc(F)cc1 (stereo not given)	-16.1%
CC(C)C(NC(=O)c1ccccc1)C(=O)OCn1nnc2ccccc2c1=O (stereo not given)	-2.8%
CCN(CC)C(=O)[C@@]1(c2ccccc2)C[C@@H]1CN	11.7%
COC(=O)c1ccc(CSc2nc3sc4c(c3c(=O)n2C)CCCC4)o1	-2.2%
COc1cc(C2/C(=C(\O)c3cc(C)ccc3C)C(=O)C(=O)N2CCN(C)C)ccc1O (stereo not given)	8.0%
CCOC(=O)Cc1csc(NC(=O)CSc2ccc(Br)cc2)n1	-11.4%
Cc1c(C(=O)NN2CCOCC2)oc2c1ccc1ccccc12	-11.3%
O=C(CNc1ccccc1)N/N=C/c1cn(-c2ccccc2)nc1-c1ccccc1	4.3%
O=C(Nc1cccnc1Cl)C1CCCN(c2ncnc3c2nc2n3CCCCC2)C1 (stereo not given)	-5.0%
NS(=O)(=O)c1ccc(CNC(=O)CCS(=O)(=O)Cc2ccccc2)cc1	-13.5%
COc1ccc(Cc2nnc(NC(=O)Nc3ccc(F)cc3)s2)cc1	7.9%
CCNC(=S)NC1CC2CCCC(C1)N2Cc1ccc(C)cc1 (stereo not given)	-23.0%

Taken from above:
For VDR inh, Cc1nn2c(N3CCOCC3)c3c(nc2c1-c1ccccc1)CCCC3 reads 5.6%
For VDR inh, COc1ccc(Cl)cc1N=Cc1c(O)cc(C)oc1=O reads 7.9%

These rows are one share of the data, so the mix of outcomes need not match the whole.
